Bead autofluor: counter-screen for toxin protease inhibitors: compound fluorescence; compound autofluorescence counterscreen, microsphere flow cytometry; stronger effect = higher value; fluorescence intensity (test concentration not listed); 3.1% of 360,000 active; AID 624483;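 active means at least 3 SD above the mean of all compounds, about 16000 in these data; inconclusive means too few beads counted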;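 further: 100 nL of 1 mM stock went into each well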
ugtP null kill: compounds lethal to S. aureus RN4220 ugtP deletion mutant; OD600 growth, 16 h; some inactives read as strong as hits; growth inhibition, % (no concentration beside the values); 0.54% of 330,000 active;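 active means z-score under -3 and OD600 up to 0.15 on both plates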;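 further: plate controls were untreated wells for no effect and antibiotic for full effect; wells of about 80 µL received 100 nL stock; the first replicate is given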
BJeLR lethal: BJeLR cell viability loss | AID 1554 | 0.17% of 300,000 active | inhibition, % (test concentration not listed) | BJeLR (HRASV12) viability, CellTiter-Glo ATP luminescence, 48 h; reference of the scale not given here;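 active means replicate mean above 50%; inconclusive means above 50% but judged a plate artefact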;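 further: 50 nL library stock added to about 25 µL; numbers are from one replicate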
Sa RN4220 lethal: S. aureus RN4220 growth inhibition. inhibition, % (no concentration beside the values). OD600, 16 h. 0.33% of 330,000 active;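 active means z-score of -3 or lower and OD600 up to 0.18 on both plates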;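 further: plate controls were untreated cells for no effect and reference antibiotic for full effect; stock transfer was 100 nL into about 80 µL; one replicate is shown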
PrP 5UTR inh: inhibition of PrP 5' UTR reporter expression; 0.35% of 340,000 active; inhibition, % (no concentration beside the values); cell-based PrP 5' UTR mRNA reporter, plate reader;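 active means every replicate at 50% or more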;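 further: 0 = median of the neutral control wells; tested in H4 reporter cells; numbers are from one replicate; inactives centre near -14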
Mtb hypoxia inh: reduces hypoxia-regulated biosensor signal in M. tuberculosis. M. tuberculosis hypoxia-regulated fluorescent reporter, fluorescence. fluorescence inhibition, % (no concentration beside the values). 0.1% of 300,000 active;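 active means 35 to 45% if threefold the growth effect, above 45% if 1.5-fold the growth effect; inactive means the rest, general growth blockers included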;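 further: wells of about 50 µL received 100 nL stock; 0% = vehicle wells and 100% = reference inhibitor wells; whole bacteria with a GFP reporter of the hypoxia response; strong numbers were not always called active; many hits fall short of the cut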
Mtb hypoxia inh growth: second read-out of Mtb hypoxia inh, no call of its own (marks repeat the call); growth inhibition, %; measured here: M. tuberculosis growth (absorbance);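 0% = vehicle and 100% = reference antibiotic; read after six days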
Active calls of the source: *; u = inconclusive; x = not tested or not shown.

SMILES | Bead autofluor | ugtP null kill | BJeLR lethal | Sa RN4220 lethal | PrP 5UTR inh | Mtb hypoxia inh | Mtb hypoxia inh growth
Cc1ccc([N+](=O)[O-])cc1NC(=O)C1CCN(S(C)(=O)=O)CC1 | 2577 | -1 | -5 | 1.9 | -10 | -4 | 5
NC(=O)C1CCN(C(=O)c2ccc(Oc3ccccc3)cc2)CC1 | 10438 | -5 | -1 | -0.3 | x | 6 | 11
O=C(NC1CCCCC1)C(c1ccccc1)N(C(=O)c1csnn1)C1CCCC1 (stereo not given) | 3514 | 9 | -12 | 2.6 | 7 | -6 | -12
O=C(O)C1=C[C@H](c2ccccc2)C[C@H](OCc2ccc(CO)cc2)O1 | 4065 | -5 | 5 | -12 | -8 | 9 | 6
COc1ccccc1/C=C/CN1CCCCC1 | 3449 | 3 | -1 | -0.6 | -9 | 17 | 7
Cc1[nH]n(-c2ccccc2)c(=O)c1C(c1ccc(C(=O)O)cc1)c1c(C)[nH]n(-c2ccccc2)c1=O | 2520 | -6 | 4 | -1.2 | -19 | 1 | 15
CCOC(=O)c1c(C)[nH]c(C)c1S(=O)(=O)NC1CCN(C(=O)OCC)CC1 | 6354 | -7 | 0 | 0.5 | -19 | 6 | 9
C=CCN(CC=C)c1ncnc2[nH]ncc12 | 3938 | 3 | x | 1.9 | 13 | 14 | 13
Nc1ncnc(Nc2ccccc2Cl)n1 | 5792 | -2 | -11 | 0.9 | -38 | -9 | 14
COc1ccc(-c2nnc(SCCC(=O)O)n2-c2ccccc2)cc1OC | 25005* | 2 | 4 | 5.0 | -16 | 3 | 4

Record cards, from the list above:
NC(=O)C1CCN(C(=O)c2ccc(Oc3ccccc3)cc2)CC1 as listed: Bead autofluor: 10438; ugtP null kill: -5; BJeLR lethal: -1; Sa RN4220 lethal: -0.3; PrP 5UTR inh: x; Mtb hypoxia inh: 6; Mtb hypoxia inh growth: 11
COc1ccccc1/C=C/CN1CCCCC1 as listed: Bead autofluor: 3449; ugtP null kill: 3; BJeLR lethal: -1; Sa RN4220 lethal: -0.6; PrP 5UTR inh: -9; Mtb hypoxia inh: 17; Mtb hypoxia inh growth: 7

(next part)
SMILES | Bead autofluor | ugtP null kill | BJeLR lethal | Sa RN4220 lethal | PrP 5UTR inh | Mtb hypoxia inh | Mtb hypoxia inh growth
O=C(Nc1cccnc1)C1CC(=O)N(c2ccc(F)cc2)C1 (stereo not given) | 4068 | 7 | 8 | -0.3 | -11 | 4 | 10
O=S(=O)(Cc1ccccc1)N1CCN(Cc2ccccc2)CC1 | 10505 | 5 | -6 | -1.6 | -14 | -3 | 3
O=C(COc1ccccc1Cl)NCCc1ccc2c(c1)OCCO2 | 2618 | 5 | 2 | 6.0 | -23 | 4 | 9
O=C(N/N=C/c1c(O)n(CCc2ccccc2)c(=O)[nH]c1=O)c1ccncc1 | 2516 | 3 | -10 | 3.5 | -20 | -4 | -7
Cn1c(SCCOc2ccccc2Cl)nnc1-c1cccs1 | 22281* | -8 | 0 | 1.7 | -24 | 7 | 5
CCOC(=O)N1CCN(CCC(=O)Nc2ccccc2OC)CC1 | 4446 | 0 | -5 | 1.7 | -17 | x | x
Cc1ccc(C(=O)N(Cc2nnc(-c3ccc(Cl)cc3)o2)C2CC2)o1 | u | 5 | x | 5.3 | -21 | 6 | -2
Cc1ccc(C(=O)NCc2ccco2)cc1 | 3527 | 4 | -1 | 5.9 | -13 | x | x
O=C(Nc1cc(Cl)ccc1N1CCOCC1)c1cccnc1Cl | 3836 | 4 | -3 | 3.1 | -33 | -1 | 1
Cc1ccc(S(=O)(=O)/N=C(/Nc2ccccc2C)c2ccccc2)cc1 | 3592 | 2 | x | 4.8 | -19 | 2 | 7
c1ccc(C(Cc2nc(-c3cccnc3)no2)c2ccccc2)cc1 | 2437 | 3 | -1 | -1.2 | -26 | 5 | 6
Cc1cc(C)n(-c2ccc(C(C)C)cc2)c(=O)c1C#N | 2764 | -2 | 0 | 0.6 | -9 | 4 | 6
CCC(=NCCN1CCNCC1)C1=C(O)CC(C)(C)CC1=O | 10701 | -3 | 9 | -0.9 | -30 | 5 | 6
COc1ccc(/C(N)=N/OC(=O)c2ccc3c(c2)OCO3)cc1 | 2412 | -1 | -8 | 2.8 | -51 | 5 | 5
O=c1c2c3nc4ccccc4nc3n(N=Cc3ccco3)c2ncn1CCC1=CCCCC1 | x | -27 | x | 5.3 | x | 3 | 15
CN(Cc1ccccc1)C(=O)c1ccc(NC(=O)Cc2ccc(NC(=O)C3CCCN(C(=O)c4ccccc4)C3)cc2)cc1 (stereo not given) | 3776 | 7 | x | 4.7 | -21 | 1 | 8
Cc1ccc(NC(=S)NCC(C)C)cc1 | 1995 | 6 | -5 | 3.7 | -25 | 13 | 3
O=c1[nH]c(CN2CCN(Cc3ccccc3)CC2)nc2scc(-c3ccccc3)c12 | 3760 | 0 | -2 | -1.5 | -14 | 2 | -6
CCOc1ccc(N2CC(C(=O)Nc3ccccc3C(=O)NC3CC3)CC2=O)cc1 (stereo not given) | 4410 | 7 | 0 | 3.1 | 5 | -8 | -8
Cc1cccc(CCN(C(=O)c2snc(C(N)=O)c2N)C(C(=O)NCC2CCCO2)c2ccc(F)cc2)c1 (stereo not given) | 5902 | 6 | -5 | 5.1 | -31 | 2 | 1

Structures listed so far containing fluorine, in the order listed:
SMILES | Bead autofluor | ugtP null kill | BJeLR lethal | Sa RN4220 lethal | PrP 5UTR inh | Mtb hypoxia inh | Mtb hypoxia inh growth
O=C(Nc1cccnc1)C1CC(=O)N(c2ccc(F)cc2)C1 (stereo not given) | 4068 | 7 | 8 | -0.3 | -11 | 4 | 10
Cc1cccc(CCN(C(=O)c2snc(C(N)=O)c2N)C(C(=O)NCC2CCCO2)c2ccc(F)cc2)c1 (stereo not given) | 5902 | 6 | -5 | 5.1 | -31 | 2 | 1

Next section.
SMILES | Bead autofluor | ugtP null kill | BJeLR lethal | Sa RN4220 lethal | PrP 5UTR inh | Mtb hypoxia inh | Mtb hypoxia inh growth
COC(=O)c1c(NC(=O)CN(c2ccc(C)c(C)c2)S(C)(=O)=O)sc2c1CCCC2 | 2550 | -6 | -18 | -2.5 | -25 | -1 | 5
CCOC(=O)Cn1nc(/C=C/c2ccc(C)cc2)ccc1=O | 1991 | 21 | 4 | 7.1 | -20 | x | x
CCNC(=O)CC(C)=NNC(=O)C1CCCCC1 | x | 1 | x | 1.9 | x | 11 | 11
CCOc1cc(C=O)ccc1OCCCN1C(=O)NC(C)(C)C1=O | 22259* | 3 | 2 | 4.1 | -14 | -3 | 0
CC1(C)CC(=O)C(N=Nc2cc(S(=O)(=O)N3CCOCC3)ccc2Cl)=C(O)C1 | x | -4 | 1 | 1.3 | x | 9 | -2
CCOC(=O)COc1ccccc1C=NNC(=O)c1cc2c(ccc3ccccc32)o1 | x | 7 | x | 5.6 | x | -6 | -9
CC(OC(=O)CN1C(=O)c2ccccc2C1=O)C(=O)NC1CCCC1 (stereo not given) | 3431 | 4 | -7 | 1.7 | 2 | 4 | 0
Cn1nc(C(=O)Nc2ccc(S(=O)(=O)N3CCCCC3)cc2)c2ccccc2c1=O | 3203 | 18 | 4 | 0.5 | -13 | 2 | 2
COc1ccc(CC(=O)NN=C(C)c2cccs2)cc1OC | x | 0 | x | 3.0 | x | 11 | 4
Cn1cc(C(=O)c2ccc(Cl)cc2Cl)cc1C(=O)NN=C(N)COc1ccc(F)cc1 | x | -20 | x | -7.0 | x | -4 | -1
Cn1c(=O)c2[nH]c(SCc3cccnc3)nc2n(C)c1=S | 3169 | 6 | x | 6.4 | -22 | 8 | 5
O=[N+]([O-])c1cccc(C(=Nc2ccccc2Cl)NO)c1 | 14865 | 10 | 6 | 6.8 | -1 | 8 | 14
COc1ccc(-n2nc(C(=O)N(C)C)nc2-c2ccccc2)cc1 | 3571 | 1 | -3 | 3.1 | -2 | 9 | 5
CCCNC(=S)Nc1ccc(CC(=O)OC)cc1 | 10957 | 14 | -8 | 0.5 | -12 | 21 | 18
CCN(CC)c1ccc(N2C(=O)/C(=C/c3ccccn3)SC2=S)cc1 | 4123 | 23 | 1 | 2.5 | -9 | 14 | -3
Nc1nnc(SCc2cccc(C(F)(F)F)c2)s1 | 13219 | 3 | 8 | 5.1 | -22 | 3 | 6
COc1cc(CNC(C)C23CC4CC(CC(C4)C2)C3)ccc1OCC(=O)NC(C)(C)C (stereo not given) | 3930 | -11 | 3 | -1.9 | 3 | 18 | 8
O=C(NN=Cc1ccc(O)c([N+](=O)[O-])c1)c1ccncc1 | x | 1 | x | 4.5 | x | x | x
O=C(NCCOc1ccccc1Cl)c1cccc2c1C(=O)c1ccc(Cl)cc1S2(=O)=O | 3950 | 9 | x | 13 | -19 | 16 | 7
COc1ccc(C(=O)NCCS(=O)(=O)N2CCc3ccccc3C2)cc1 | u | 15 | -1 | 5.8 | -13 | 4 | 7
N#Cc1c2n(c3c(N)ncnc13)CCCCC2 | 3865 | 6 | 12 | 6.3 | -9 | -4 | 3
O=C(C1CCN(S(=O)(=O)c2cccnc2)CC1)N1CCN(c2ccccc2Cl)CC1 | 2814 | 12 | 1 | -3.8 | -9 | x | x
COc1ccc(NS(=O)(=O)c2ccc(N/N=C/c3ccc(N4CCOCC4)cc3)c([N+](=O)[O-])c2)cc1 | 2410 | x | 0 | x | -30 | x | x
CCN(CC)c1ccc(/C=N/NC(=O)Nc2nonc2N)cc1 | 2506 | x | -8 | x | -35 | x | x
OCC1CO1 (stereo not given) | 4343 | 4 | x | 3.9 | -9 | 9 | 9
COc1cc(C(=O)OCCCN2CCCN(CCCOC(=O)c3cc(OC)c(OC)c(OC)c3)CC2)cc(OC)c1OC | 6660 | -7 | 1 | -1.3 | -29 | -6 | 6
COc1ccc(C2C(C(=O)N3CCN(C)CC3)c3ccccc3C(=O)N2C2CCCCC2)cc1 (stereo not given) | 4541 | 0 | 1 | 0.9 | -16 | -2 | 8
CCOc1ccc(-n2c(C)nc3cc(C(=O)NCCN4CCOCC4)ccc32)cc1 | 7593 | 25 | 3 | -3.6 | 30 | 7 | 9
S=C(NCc1ccco1)Nc1ccc(Oc2ccc(Cl)cc2)cc1 | x | -32 | 7 | -8.2 | -9 | 7 | 21
C/C(=N\NC(=S)NC(C)C)c1ccc2c(c1)OCCO2 | 2109 | x | -7 | x | -21 | x | x
CC1CCCN(CCCNC(=O)CN2C(=O)COc3ccccc32)C1 (stereo not given) | 4672 | 3 | 7 | 2.1 | -11 | 3 | -12
Cc1nn(C)cc1C(=O)Nc1ccc2c(c1)OCCO2 | 3591 | 12 | 0 | -6.3 | -4 | 3 | -3
COC(=O)c1sc(NC(=O)CCCn2nc([N+](=O)[O-])cc2C)c(C(=O)OC)c1C | 2043 | 7 | 3 | 4.2 | -1 | 16 | 6
COCCN(CC1CCCN(C2Cc3ccccc3C2)C1)C(=O)CCC(C)=O (stereo not given) | 3435 | -5 | -2 | -3.5 | -19 | -11 | -5
CN(C(=O)c1cccc(NC(=O)Cc2ccc(NC(=O)C3CCCN(C(=O)C4CCC4)C3)cc2)c1)C1CC1 (stereo not given) | 4184 | 2 | x | -1.4 | -4 | -1 | -3
CCOC(=O)N1CCC(NC(=O)c2cnn3c2NC(c2ccco2)CC3C(F)(F)F)CC1 (stereo not given) | 2722 | -7 | 5 | 1.6 | -19 | x | x
COc1ccc(OC)c(NC(=S)N2CCCC2)c1 | 5922 | 0 | x | 0.2 | -19 | 11 | 1
CCc1ccc(-c2nnn(CCC#N)n2)cc1 | 4768 | -3 | -1 | 8.0 | -38 | 8 | 9
O=C(CN1C(=O)NC2(CCOc3ccccc32)C1=O)Nc1cccc(Cl)c1 (stereo not given) | 5901 | -8 | 6 | -0.9 | -17 | 13 | 6
CCOC(=O)C1CCN(C(=O)c2cc(CN3C(=O)c4ccccc4C3=O)ccc2OCC)CC1 | u | 6 | 2 | 3.4 | -3 | 5 | -5
Cc1ccc(C(=O)Nc2ccccc2C(=O)NCc2cccnc2)cc1 | 5589 | 1 | -6 | 2.8 | -1 | 0 | 0
COc1ccccc1C(CC(=O)Nc1ccc(Cl)cc1)c1ccc(OC(C)C)cc1 (stereo not given) | 2526 | -18 | -4 | -6.9 | -5 | 4 | 4
O=C(Cc1ccccc1)N1CCc2[nH]nc(-c3ccccc3)c2C1 | 3479 | 12 | -2 | -1.0 | -36 | 16 | 9
CC(C)C(NC(=O)c1ccccc1)C(=O)OCC(=O)C=C1N(C)c2ccccc2C1(C)C (stereo not given) | x | -7 | x | 5.1 | x | 10 | -3
Cc1ccccc1OCCCCn1cnc2ccccc21 | 10525 | -5 | x | 11 | -9 | 9 | 13
Cc1ccc(S(=O)(=O)Nc2ccc(Nc3ccccc3)cc2)cc1 | 3582 | -3 | -12 | -1.4 | -18 | 1 | 12
